# Screens deposited in PubChem BioAssay by ICCB-Longwood Screening Facility, Harvard Medical School.
# CapD inh – Bacillus anthracis CapD inhibitors, primary screen, biochemical, fluorescence intensity; purified CapD enzyme, fluorescence intensity read-out; stronger effect = lower value; some hits fall short of the stated cut; z-score (test concentration not listed); 140,000 compounds, 0.23% hits; AID 492967, 2010;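 active = z-score under -4 in either of two replicates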;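 note: stock transfer was 100 nL into about 40 µL; score is relative to mean and spread of the plate; one replicate is shown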
# AID504770 – growth inhibition of E. coli YBA685, primary screen, V. cholerae RctB inhibitors. z-score (test concentration not listed). E. coli YBA685 rctB-dependent plasmid, OD600 growth, 3 h; stronger effect = lower value. 130,000 compounds, 0.27% hits;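 active = z-score under -2 on both plates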;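 note: wells of about 30 µL received 100 nL stock; score is relative to mean and SD of the test wells; the first replicate is given; strong numbers were not always called active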
# * = called active by the depositor; . = no result given; & = joins results of further samples.
> CCC[C@H](N[C@@H](C)C(=O)N1[C@H](C(=O)O)C[C@@H]2CCCC[C@@H]21)C(=O)OCC
- CapD inh: .
- AID504770: 0.35

> Nc1nccs1
- CapD inh: -0.46
- AID504770: 0.65

> COc1ccc(-c2cc(=O)c3c(O)cc(O[C@@H]4O[C@H](CO[C@H]5O[C@H](C)[C@@H](O)[C@H](O)[C@@H]5O)[C@@H](O)[C@H](O)[C@H]4O)cc3o2)cc1O
- CapD inh: 1.2
- AID504770: 0

> Cc1nnc(NS(=O)(=O)c2ccc(N)cc2)s1
- CapD inh: -0.2&50
- AID504770: 1.1

> O=C(O)COC(=O)Cc1ccccc1Nc1c(Cl)cccc1Cl
- CapD inh: -0.03
- AID504770: .

> CCOC(=O)c1ccc2nc(C(F)(F)F)nc(NCc3ccc(Cl)cc3)c2c1
- CapD inh: -0.46
- AID504770: -1.8

> CC1(C)O[C@@H]2C[C@H]3C4C[C@H](F)C5=CC(=O)C=CC5(C)[C@@]4(F)[C@@H](O)C[C@]3(C)[C@]2(C(=O)CO)O1 (some centres undefined)
- CapD inh: -0.6
- AID504770: .

> NS(=O)(=O)c1cc2c(cc1C(F)(F)F)NC(Cc1ccccc1)NS2(=O)=O (centres undefined)
- CapD inh: -0.54&-0.06
- AID504770: 0.1

> C1=NC(Cc2cccc3ccccc23)NC1 (centres undefined)
- CapD inh: 0.31
- AID504770: 0.1

> CCCOc1ccccc1-c1nc2n[nH]nc2c(=O)[nH]1
- CapD inh: 0.06&-0.16
- AID504770: 1.4

> O=C1NCC2(CCN(CCc3ccccc3)CC2)O1
- CapD inh: 0.055&0.065
- AID504770: -0.2

> COc1cc2nc(N3CCN(C(=O)C4COc5ccccc5O4)CC3)nc(N)c2cc1OC (centres undefined)
- CapD inh: 99&-0.83
- AID504770: 2.4

> COc1nc(C)nc(Cl)c1NC1=NCCN1
- CapD inh: -0.97
- AID504770: .

> O=C(O)[C@@H]1[C@H]2C[C@H]3c4[nH]c5ccccc5c4CCN3C[C@@H]2CC[C@@H]1O
- CapD inh: 0.14
- AID504770: .

> CC(C)Cc1ccc([C@H](C)C(=O)O)cc1
- CapD inh: -0.11
- AID504770: .

> C[C@]12CC[C@H]3[C@@H](CCC4=CC(=O)CC[C@@]43C)[C@@H]1CC[C@@H]2C(=O)CO
- CapD inh: -0.9
- AID504770: .

> Nc1cc(-c2ccncc2)c[nH]c1=O
- CapD inh: -0.17&-1.1
- AID504770: .

> CC(=O)[C@H]1CC[C@H]2[C@@H]3C[C@H](C)C4=CC(=O)CC[C@]4(C)[C@H]3[C@@H](O)C[C@]12C
- CapD inh: 103
- AID504770: .

> COc1cc(N)c(Cl)cc1C(=O)NC1CCN(CCCOc2ccc(F)cc2)CC1OC (centres undefined)
- CapD inh: 2.9
- AID504770: .

> Cc1onc(-c2ccccc2Cl)c1C(=O)N[C@@H]1C(=O)N2[C@@H]1SC(C)(C)[C@@H]2C(=O)O
- CapD inh: 0.27&3.9
- AID504770: 0.55

> COc1ccc(/C=C/C(=O)c2sc(-c3ccccc3)nc2C)cc1OC
- CapD inh: -1.2
- AID504770: .

> c1ccc2c(CC3=NCCN3)cccc2c1
- CapD inh: 0.26&0.2&-0.17
- AID504770: 2&1.2

> COc1c(O)cc2c(c1O)C1OC(CO)C(O)C(O)C1OC2=O (centres undefined)
- CapD inh: -0.14
- AID504770: .

> O=C(Cn1ccnc1[N+](=O)[O-])NCCO
- CapD inh: 0&1.1
- AID504770: .

> COc1ccc(C2CC(=O)C3=C(C2)NC(C)=C(C(=O)OCCc2ccccc2)C3c2ccncc2)cc1 (centres undefined)
- CapD inh: 52
- AID504770: .

> CC(C)(C)C(=O)Nc1ncccn1
- CapD inh: 0.28
- AID504770: 2

> c1ccc(Cc2nc(-c3ccncc3)n[nH]2)cc1
- CapD inh: 0.31
- AID504770: 0.4

> COc1ccc(CN(CCN(C)C)c2ccccn2)cc1
- CapD inh: 2.8&-0.42
- AID504770: -0.6

> COC(=O)c1cccnc1
- CapD inh: .
- AID504770: 0.5

> CN(C)C/C=C(/c1ccc(Br)cc1)c1cccnc1
- CapD inh: -0.24
- AID504770: .

# Reprinted from the entries so far, twelve compounds:
> C[C@]12CC[C@H]3[C@@H](CCC4=CC(=O)CC[C@@]43C)[C@@H]1CC[C@@H]2C(=O)CO
- CapD inh: -0.9
- AID504770: .

> Nc1cc(-c2ccncc2)c[nH]c1=O
- CapD inh: -0.17&-1.1
- AID504770: .

> CC(=O)[C@H]1CC[C@H]2[C@@H]3C[C@H](C)C4=CC(=O)CC[C@]4(C)[C@H]3[C@@H](O)C[C@]12C
- CapD inh: 103
- AID504770: .

> COc1cc(N)c(Cl)cc1C(=O)NC1CCN(CCCOc2ccc(F)cc2)CC1OC (centres undefined)
- CapD inh: 2.9
- AID504770: .

> Cc1onc(-c2ccccc2Cl)c1C(=O)N[C@@H]1C(=O)N2[C@@H]1SC(C)(C)[C@@H]2C(=O)O
- CapD inh: 0.27&3.9
- AID504770: 0.55

> COc1ccc(/C=C/C(=O)c2sc(-c3ccccc3)nc2C)cc1OC
- CapD inh: -1.2
- AID504770: .

> c1ccc2c(CC3=NCCN3)cccc2c1
- CapD inh: 0.26&0.2&-0.17
- AID504770: 2&1.2

> COc1c(O)cc2c(c1O)C1OC(CO)C(O)C(O)C1OC2=O (centres undefined)
- CapD inh: -0.14
- AID504770: .

> O=C(Cn1ccnc1[N+](=O)[O-])NCCO
- CapD inh: 0&1.1
- AID504770: .

> COc1ccc(C2CC(=O)C3=C(C2)NC(C)=C(C(=O)OCCc2ccccc2)C3c2ccncc2)cc1 (centres undefined)
- CapD inh: 52
- AID504770: .

> CC(C)(C)C(=O)Nc1ncccn1
- CapD inh: 0.28
- AID504770: 2

> c1ccc(Cc2nc(-c3ccncc3)n[nH]2)cc1
- CapD inh: 0.31
- AID504770: 0.4

# (cont.)
> CC(=O)NCCCCCC(=O)O
- CapD inh: -0.83
- AID504770: 0.6

> CN1CCC(=C2c3ccccc3CCc3sccc32)CC1
- CapD inh: -0.24
- AID504770: .

> CCCCNC(=O)N1CCc2cc(OC)c(OC)cc2C1c1ccccc1 (centres undefined)
- CapD inh: .
- AID504770: -0.2

> CC(C)Cc1ccc(C(C)C(=O)O)cc1 (centres undefined)
- CapD inh: 0.48
- AID504770: 0.1

> C=CCN1C(=O)C(CC(C)C)NC1=S (centres undefined)
- CapD inh: 0.35
- AID504770: -0.4

> CC1=NN(c2ccccc2)C(=O)C1
- CapD inh: -0.89&-0.24
- AID504770: .

> N=C(N=C(N)N)N1CCOCC1
- CapD inh: 6.5
- AID504770: .

> CN(C)CCCN1c2ccccc2Sc2ccccc21
- CapD inh: 0.14&0.01
- AID504770: -0.05

> COc1ccccc1OCC(O)COC(N)=O (centres undefined)
- CapD inh: 0.08&-0.025
- AID504770: -0.45

# 2 of the compounds above, with tabs:
smiles	CapD inh	AID504770
O=C(O)[C@@H]1[C@H]2C[C@H]3c4[nH]c5ccccc5c4CCN3C[C@@H]2CC[C@@H]1O	0.14	.
CC(C)Cc1ccc([C@H](C)C(=O)O)cc1	-0.11	.

# These rows are one share of the data; rates above refer to the full screens.
